High-throughput results deposited in PubChem by National Center for Advancing Translational Sciences (NCATS).
Sfp inh = qHTS Assay for Inhibitors of Bacillus subtilis Sfp phosphopantetheinyl transferase (PPTase); 4'-phosphopantetheinyl transferase ffp (Bacillus subtilis), Q9F4F7; Biochemical Sfp PPTase activity, qHTS; Potency, µM, without a hit: max response, negative = inhibition, usual class: inhibitors; 310,000 compounds, 3.5% hits; AID 1490, 2009; active = well fitted inhibition curve with a large enough effect; inconclusive = small, poorly fitted or top-dose-only effect, or another doubt; inactive = no such curve, though single readings can be large or run the other way;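 also: the enzyme is Sfp with the accession as filed and its product quenches rhodamine fluorescence; potency is read from the fitted curve at half-maximal effect; 0% = enzyme reaction without inhibitor and -100% = no enzyme wells; top concentration of the series not given in the record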
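Compounds were incubated with enzyme (final 15 nM) for 15 min at room temperature before substrate addition started the reaction. Fluorescence at 525 nm excitation, 598 nm emission was recorded immediately and after 30 minutes.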
TRPV1 PAM = HTS Assay for Compounds that Act as Potentiators of the Vanilloid Receptor 1. Transient receptor potential cation channel subfamily V member 1 (Homo sapiens), Q8NER1. TRPV1-expressing cells, Fluo-8 calcium influx, capsaicin EC20 potentiation; host cell line not named in the record; control for the full effect not named in the record. potentiation, % at 8.33 µM. 320,000 compounds, 0.02% hits. AID 540277, 2011; active means potentiation above 80%; inconclusive means 30% to 80%; inactive means below 30%; also: 0% is about no effect
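Cells expressing TRPV1 were dye-loaded with Fluo-8 and read kinetically: 10 s baseline, 3 min after compound (agonist portion), then 2 min after EC20 capsaicin (allosteric enhancer portion). Calcium-bound dye fluorescence at 480/520 nm.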
ClpP mod = qHTS Assay for Activators of ClpP; ATP-dependent Clp protease proteolytic subunit (Bacillus subtilis (strain 168)), P80244; 340,000 compounds, 1.9% hits; Potency, µM (highest dose often 57.5 µM), without a hit: top-dose activity change, negative = active; purified B. subtilis ClpP, FRET peptide cleavage, 20 min; active = well fitted falling curve with a large enough effect; inconclusive = small, poorly fitted or top-dose-only effect; inactive = no such curve, though single readings can be large or run the other way; also: potency is read from the fitted curve at half-maximal effect; the source files actives as falling curves though it sought activators and does not explain the sign; nearly all actives have a fitted effect of over 65% in size; many hits overshoot -100%
Target sequence (P80244 whole entry, looked up): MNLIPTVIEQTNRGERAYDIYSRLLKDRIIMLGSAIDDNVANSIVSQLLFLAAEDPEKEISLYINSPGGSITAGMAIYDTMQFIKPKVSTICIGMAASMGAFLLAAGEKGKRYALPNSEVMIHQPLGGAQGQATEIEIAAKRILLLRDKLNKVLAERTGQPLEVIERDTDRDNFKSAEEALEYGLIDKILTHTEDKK
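FRET quenching reversal measured ClpP activation: 10 microg/mL B. subtilis ClpP at pH 8 with the FRET-FV decapeptide, read at 430 nm after 320 nm excitation. The 20-min minus 0-min signal was scaled between DMSO/no-enzyme wells and ADEP (5.8 microM final).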
TRPML1 inh = qHTS for Inhibitors of the Human Mucolipin Transient Receptor Potential 1 (TRPML1). 390,000 compounds, 0.02% hits. AID 624415, 2012. Mucolipin-1 (Homo sapiens), Q9GZU1. activity change, negative = inhibition, % (test concentration not listed). TRPML1-inducible cells, Ca2+ dye fluorescence, FDSS; stronger effect = lower value; inhibition of EC80 agonist-evoked calcium signal; in the data active means activity change below about -50%; inconclusive means about -30% to -50%; inactive means above about -30%;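 also: stimulus is agonist 54-4 at its EC80 concentration; % is scaled to controls: 0 for no effect and ±100 for the full control effect; compound concentration not given in the record; the text of the record puts the active cut at -80%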
Target sequence (Q9GZU1 whole entry, looked up): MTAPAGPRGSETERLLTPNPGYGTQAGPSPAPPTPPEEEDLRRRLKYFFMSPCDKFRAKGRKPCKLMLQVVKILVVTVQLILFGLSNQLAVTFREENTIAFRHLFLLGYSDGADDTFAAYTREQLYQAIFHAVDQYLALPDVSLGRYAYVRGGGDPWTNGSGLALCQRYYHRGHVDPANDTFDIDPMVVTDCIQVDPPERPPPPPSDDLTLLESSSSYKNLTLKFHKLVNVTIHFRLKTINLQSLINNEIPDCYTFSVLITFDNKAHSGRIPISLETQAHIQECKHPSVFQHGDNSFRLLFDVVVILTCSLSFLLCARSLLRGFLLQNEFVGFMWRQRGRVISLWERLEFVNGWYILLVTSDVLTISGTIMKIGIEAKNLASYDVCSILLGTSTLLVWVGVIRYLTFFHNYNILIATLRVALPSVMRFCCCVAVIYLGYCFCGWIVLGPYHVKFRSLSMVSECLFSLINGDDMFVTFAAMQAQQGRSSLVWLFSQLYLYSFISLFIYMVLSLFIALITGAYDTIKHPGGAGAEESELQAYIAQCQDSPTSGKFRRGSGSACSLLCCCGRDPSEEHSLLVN
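Tet-induced TRPML1-DL cells loaded with Ca8 no-wash calcium dye were read kinetically on FDSS. Compound addition was followed by EC80 agonist 54-4 (4 uM final); inhibition was read over 110 s.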
gsp agonist = qHTS for Agonist of gsp, the Etiologic Mutation Responsible for Fibrous Dysplasia/McCune-Albright Syndrome: qHTS; Potency, µM (titrated, usually from 76.9 µM), for inactives: at the highest dose activation (cAMP increase), hits mostly activators; AID 624287, 2012; gsp mutant cells, cAMP HTRF, 30 min; control for the full effect not named in the record; 340,000 compounds, 0.13% hits; active = well fitted activation curve with a large enough effect; inconclusive = small, poorly fitted or top-dose-only effect, or another doubt; inactive = no such curve, though single readings can be large or run the other way; cell line not stated here;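 also: phosphodiesterase inhibitor Ro 20-1724 added with compounds to block cAMP breakdown; potency is read from the fitted curve at half-maximal effect; nearly all actives have a fitted effect of over 60% in size; about a fifth of the inactives were tested at one dose only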
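Cells in DMEM/10% FBS with G418 were pretreated with compounds in DMSO plus […] (300 uM stock) for 30 min at 37C. cAMP was measured by HTRF (cAMP-d2 plus anti-cAMP antibody-K) after 30 min at room temperature.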
gsp antag = qHTS for Antagonists of gsp, the Etiologic Mutation Responsible for Fibrous Dysplasia/McCune-Albright Syndrome: qHTS. 340,000 compounds, 0.4% hits. gsp-mutant cells, cAMP HTRF, 30 min; control for the full effect not named in the record. Potency, µM (series often up to 76.9 µM), without a hit: at the top dose activity change, negative = inhibition, usual class: inhibitors; active = falling curve of any shape with a large fitted effect; inconclusive = falling curve, mostly with a smaller effect; inactive = flat or rising curve; cell line not stated here;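 also: intracellular cAMP measured with PDE inhibitor Ro 20-1724 present during compound exposure; potency is read from the fitted curve at half-maximal effect; % is scaled to controls: 0 for no effect and ±100 for the full control effect; nearly all actives have a fitted effect of over 65% in size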
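HTRF cAMP measurement after 30 min RT detection following 30 min, 37C compound treatment alongside […] (added as 300 uM solution) in G418-selected cells seeded at 2000/well and grown 16–24 h.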
Menin-MLL FL inh = qHTS Assay for Inhibitors Targeting the Menin-MLL Interaction in MLL Related Leukemias: Competition With Fluorescein Labeled MLL-derived Peptide. Fluorescence polarization, fluorescein-MLL peptide displacement from menin. FP activity change, % at 61.4 µM. 290,000 tested, under 10 active. AID 1766, 2009; inconclusive = falling polarisation curve, or a change in total fluorescence; inactive = total fluorescence flat and polarisation flat or rising; no compound was filed as active; the % refers to the polarisation; negative = inhibition;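 also: % of control where 0% means no effect; inhibitors lower the polarisation; unlabelled MLL peptide was the positive control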
Active calls of the source: *; ? = inconclusive; . = not tested or not shown; [ ] = another dose, or the depositor's remark.

SMILES	Sfp inh	TRPV1 PAM	ClpP mod	TRPML1 inh	gsp agonist	gsp antag	Menin-MLL FL inh
N=c1c(C(=O)NC2CCCCC2)cc2c(=O)n3ccccc3nc2n1Cc1ccccc1	-9.1%	-8.6	3.5%	3.0	17.2%	-9.7%	.
COc1cccc(/C=C/C(=O)OCC(=O)NC2CCCCCC2)c1	.	.	3.5%	-4.0	-3.4%	.	.
O=C(CSc1nnc(NC(=O)c2ccccc2[N+](=O)[O-])s1)NCC1CCCO1 (stereo not drawn)	?	-1.7	0.9%	2.4	-7.3%[15.4 µM]	-20.0%	.
CCCCn1c(N)c(N(CCOC)C(=O)c2cc(-c3ccncc3)nc3ccccc23)c(=O)[nH]c1=O	11.4%	-4.5	-5.1%	16.5	-6.7%	8.4%	.
N#CCOc1ccccc1P(=O)(c1ccccc1)c1ccccc1	2.7%	3.1	-1.1%	5.4	20.6%	2.6%	-9.5
O=C1/C(=C/c2cccnc2)SC(=S)N1c1ccccc1	-17.9%	-0.2	1.7%	-17.7	3.7%	-15.2%	0.5
CCCSc1cc(N2CCOCC2)nc(-c2ccccc2Cl)n1	12.7%	-12.8	-0.1%	6.8	-16.6%	?	5.1
CCn1c(SCC(=O)N(C)c2c(N)n(Cc3ccccc3)c(=O)[nH]c2=O)nnc1-c1cccs1	.	.	-7.3%	4.1	-7.7%	.	.
CCC(C)[C@H](NC(=O)NCc1cccs1)C(=O)O (stereo partly drawn)	1.1%	8.0	-0.3%	-12.6	-17.5%	4.5%	-1.7
CCOC(=O)c1c(C)[nH]c(C(=O)OCC(=O)Nc2cc(C)nn2-c2ccccc2)c1C	.	10.6	-2.1%	1.5	-1.4%	-2.2%	.
COc1ccccc1NS(=O)(=O)c1cccc(C(=O)N/N=C(\C)c2ccc(-n3ccnc3)cc2)c1	5.5%	11.1	-2.0%	-6.5	-0.7%	-32.6%	1.9
O=C(OCC(=O)N1CCCC1)c1ccco1	11.4%	-1.3	-1.3%	-9.4	-1.0%	4.5%	-1.5
O=C(NCC(=O)N(c1ccccc1)C(C(=O)NC1CCCCC1)c1cccnc1)c1cccs1 (stereo not drawn)	21.4%	5.3	.	-7.3	-26.4%	3.9%	0.4
Cc1cc(S(=O)(=O)N(Cc2ccc(F)cc2)CC2CCCO2)ccc1-n1cnnn1 (stereo not drawn)	12.4%	-18.2	-0.1%	5.9	-51.1%[inhibitor]	-2.8%	-0.2
C=CCNC(=S)Nc1ccc2cn[nH]c2c1	3.9%	.	.	25.0	6.5%[15.4 µM]	-1.9%	4.8
CCN(CC)CCCn1c(SCC(=O)NCC2CCCO2)nc2ccccc2c1=O (stereo not drawn)	.	8.8	.	-0.8	25.6%[15.4 µM]	11.5%	.
O=C(N=Nc1c(O)[nH]c2ccc(Br)cc12)c1ccccc1-n1cccc1	-4.9%	-9.1	0.6%	4.0	-7.1%	-6.0%	-0.7
C#Cc1ccc([C@@H]2C=C(C(=O)NC3CC3)O[C@H](OCC)[C@H]2CCCO)cc1	3.2%	-36.2	-3.2%	1.9	.	10.3%	-2.6
O=C(NCc1cccnc1)c1cccc(S(=O)(=O)Nc2ccc(F)cc2)c1	.	22.2	6.4%	0.8	-5.0%	-4.8%	.
O=C(NCCc1ccccc1)C(c1cccs1)N(C(=O)CCl)c1ccc(Cl)cc1 (stereo not drawn)	-14.2%	-1.5	1.4%	15.7	15.2%	-23.6%	1.4
CCOc1ccccc1/C=C/c1cc(C(=O)O)c2ccccc2n1	1.2%	?	.	22.4	-9.3%[15.4 µM]	-3.4%	2.3
Cc1cc(C)cc(C(=O)N2CCN=C2c2ccccc2)c1	8.7%	-10.8	-2.4%	0.4	13.6%	-0.3%	2.9
O=C(NCC1CCCO1)c1ccc2c(c1)S(=O)(=O)c1ccccc1C2=O (stereo not drawn)	.	.	-1.3%	1.4	.	9.0%	.
CC(C)CC(c1nnnn1Cc1ccc2c(c1)OCO2)N1CCC(C(N)=O)CC1 (stereo not drawn)	3.7%	-3.8	.	10.7	?	-4.1%	-2.5
CCCCN(CC)C(=O)c1oc2ccc(S(=O)(=O)N3CCCC3)cc2c1C	8.4%	-4.4	1.5%	11.1	-58.6%[inhibitor]	-2.4%	-2.7

The results go on:
SMILES	Sfp inh	TRPV1 PAM	ClpP mod	TRPML1 inh	gsp agonist	gsp antag	Menin-MLL FL inh
CCCS(=O)(=O)c1nc(S(=O)(=O)c2ccc(C)cc2)c(N2CCOCC2)s1	13.5%	0.2	1.3%	-6.8	-23.9%	6.3%	-1.0
CN1CCN(C(=O)CN(c2cc(C(F)(F)F)ccc2Cl)S(C)(=O)=O)CC1	5.0%	-4.3	-0.2%	-6.9	18.0%	4.8%	3.9
O=C(NCCC1CCCCN1S(=O)(=O)c1ccccc1)C(=O)Nc1ccccc1 (stereo not drawn)	.	-4.7	1.1%	5.8	19.0%[15.4 µM]	-14.6%	.
Nc1c(-c2ccccc2)c(CN2CCOCC2)nn1-c1ccc(C(=O)O)cc1	13.3%	7.2	0.7%	-6.1	-17.9%	3.5%	5.7
Cc1[nH]c2ccccc2c1/C=N/NC(=O)c1ccccc1	-2.9%	-1.3	3.4%	0.5	-32.3%[inhibitor]	-17.6%	-3.4
O=C1CNC(=O)/C(=C\c2ccc(F)cc2)N1	16.6%	-2.5	.	-14.0	7.6%	6.9%	-0.3
O=C(Nc1ccc(OC(F)(F)F)cc1)c1ccc2nc[nH]c2c1	4.3%	3.9	-0.2%	.	-15.9%	-12.1%	-1.4
Cc1nn(Cc2c(Cl)cccc2Cl)c(C)c1NC(=O)/C=C/c1cnn(C)c1C	-4.2%	17.3	-0.2%	-10.8	5.0%	-1.8%	0.5
CCc1ccc(N(CC(=O)NCc2ccc(F)cc2)C(=O)c2csnn2)cc1	15.5%	6.3	.	7.0	-12.7%	5.9%	1.8
CCn1cc(/C=N\NC(=O)COc2cccc(C)c2C)c(C)n1	2.3%	-4.7	-0.3%	5.0	-1.5%[15.4 µM]	6.1%	2.2
CCC(C)NC(=O)c1ccccc1NC(=O)CN(c1cc(C)ccc1OC)S(C)(=O)=O (stereo not drawn)	-1.3%	-7.2	-0.1%	-2.1	13.4%	-0.6%	-3.1
COc1ccc(NC(=O)NNC(=O)c2ccc3ccccc3c2O)c(OC)c1	16.2%	5.8	3.5%	0.3	38.6%	3.4%	3.8
CSc1c(CC(=O)Nc2ccccc2)n(Cc2ccccc2)c2ccccc12	4.7%	3.9	-5.7%	25.4	0.0%	-6.5%	1.2
CCN(CC(=O)NCc1cccs1)C(=O)c1ccc(-c2cccc(C(F)(F)F)c2)o1	.	12.4	.	3.0	-18.3%[15.4 µM]	-2.1%	.
O=C(CCc1c[nH]c2ccccc12)NN1C(=O)NC2(CCCCC2)C1=O	.	-9.0	-1.8%	-15.3	-16.6%	-8.7%	.
Cc1ccc2cc(C#N)c(SCC(=O)Nc3ccc4sc(C)nc4c3)nc2c1	13.7%	8.9	.	.	.	.	0.3
Cc1cccc(-n2c(SCC(=O)N3CCN(c4ccccn4)CC3)nnc2N2CCOCC2)c1	.	4.3	-11.6%	7.5	-105.8%[inhibitor]	-2.5%	.
CC(=O)CSc1nnc(-c2ccc3c(c2)OCO3)o1	13.7%	-2.6	-3.3%	-7.1	-34.3%	2.2%	0.2
CC(=O)c1cccc(Nc2nc(-c3ccccc3)nc3ccccc23)c1	-25.1%	?	-1.2%	-2.5	12.9%[15.4 µM]	-27.2%	0.9
CCc1ccccc1Nc1nc(N)nc(CSc2nnnn2C)n1	18.6%	1.8	1.2%	0.1	-0.8%	8.5%	-4.0
COc1ccc2cc(C(=O)N3CCC(Cc4ccccc4)CC3)[nH]c2c1	12.5%	9.1	?	0.9	27.4%	2.3%	-2.7
Cc1ccccc1OCc1nnc(SCC(=O)NC2CCCCC2)o1	-12.6%	21.1	.	15.4	-3.3%	3.1%	-4.4
Cc1ccc(/C=N/n2c(=O)c(C(C)(C)C)nn3cnnc23)cc1	?	?	-2.3%	-12.6	?	2.6%	-4.0
CCCCn1c(=O)[nH]c2c(oc3ccccc32)c1=O	0.6%	?	3.7%	-11.8	0.2%	11.6%	-5.1
O=C(COC(=O)Cc1cccc(C(F)(F)F)c1)Nc1cccc2ccccc12	2.2%	-7.6	0.9%	-9.0	10.0%	10.9%	4.6

Next section:
SMILES	Sfp inh	TRPV1 PAM	ClpP mod	TRPML1 inh	gsp agonist	gsp antag	Menin-MLL FL inh
CN(C)c1ccc(C(C(=O)NCC2CCCO2)N(Cc2ccccc2)C(=O)c2snc(C(N)=O)c2N)cc1 (stereo not drawn)	10.1%	-4.1	.	-8.0	0.9%[15.4 µM]	-13.5%	.
COc1ccc(S(=O)(=O)N2CCCCC2)cc1NC(=O)c1ccc(OC)c(OC)c1	.	18.6	0.9%	-4.6	-1.3%	-5.5%	.
CC(C)CCn1c(Cl)nc2c1c(=O)n(C)c(=O)n2C	-10.7%	11.9	-0.4%	2.9	?	-1.9%	4.8
CN(C)c1ccc(CN(C(=O)COc2ccccc2)C2CCS(=O)(=O)C2)cc1 (stereo not drawn)	12.1%	14.8	-3.1%	-3.8	-23.5%	-15.8%	0.9
O=C(NCc1cccnc1)c1ccccc1[N+](=O)[O-]	9.5%	-2.3	-2.0%	-26.5	-20.4%	1.1%	6.9
Cc1cccc(NC(=O)c2nc[nH]c2C(=O)NCCCNC(=O)c2[nH]cnc2C(=O)Nc2cccc(C)c2)c1	.	.	-2.7%	7.9	.	?	.
CCOC(=O)c1c(NC(=O)c2cccs2)sc2c1CCCC2	15.9%	2.5	-5.9%	28.5	-60.3%[inhibitor]	7.5%	1.4
COc1cc2c(cc1OC)C(C(=O)NCCN(C)C)C(c1cccs1)N(C)C2=O (stereo not drawn)	21.0%	-0.8	-18.9%	-25.9	-59.7%[inhibitor]	6.3%	-0.1
CC(C)(C)c1ccc(C(=O)Nc2nnc(SCC(=O)NCC3CCCO3)s2)cc1 (stereo not drawn)	16.6%	8.4	-1.8%	17.3	30.4%	-0.7%	.
